Assay outcomes deposited in PubChem BioAssay by National Center for Advancing Translational Sciences (NCATS).
AmpC inh no det: Promiscuous and Specific Inhibitors of AmpC Beta-Lactamase (assay without detergent) | 71,000 tested, 1.8% active | AmpC nitrocefin hydrolysis, absorbance 480 nm, no detergent; potencies from a single point are estimates | Potency, µM (series often up to 28.7 µM), for inactives: at the highest dose activity change, negative = inhibition | AID 585, 2007; active = falling curve, for most hits resting on a single point; inconclusive = weak or doubtful change; inactive = flat or rising curve; note: % of control where 0% means no effect; about half of the hits show no inhibition at the top dose; a quarter of the inactives give rising signals
Target sequence (P00811 whole entry, looked up): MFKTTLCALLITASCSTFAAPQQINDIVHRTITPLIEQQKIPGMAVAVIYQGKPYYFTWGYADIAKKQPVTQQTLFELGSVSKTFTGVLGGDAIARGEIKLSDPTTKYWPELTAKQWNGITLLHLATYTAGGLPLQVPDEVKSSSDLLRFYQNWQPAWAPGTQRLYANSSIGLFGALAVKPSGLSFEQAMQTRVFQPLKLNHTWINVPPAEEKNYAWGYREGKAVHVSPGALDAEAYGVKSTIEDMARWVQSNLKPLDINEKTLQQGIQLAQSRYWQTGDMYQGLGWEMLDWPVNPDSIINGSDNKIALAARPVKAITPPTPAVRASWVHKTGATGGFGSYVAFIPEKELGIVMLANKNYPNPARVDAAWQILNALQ
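Enzyme, pH 7.0 phosphate. Compound titrations were pre-incubated with AmpC for 15 min at room temperature before nitrocefin (stock 800 uM) addition; product formation was recorded at 480 nm every 20 s for 4 min.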
Numbers without * were called inactive; ? = inconclusive; [ ] = another dose, or the depositor's remark. Potency is the fitted concentration of half-maximal effect. The list is partial, so the mix of outcomes need not match the whole.

SMILES	AmpC inh no det
CCOC(=O)c1c(C)oc2ccc(OCC(N)=O)cc12	18.0%
CC(=O)Nc1ccc(S(=O)(=O)Nc2ncccn2)cc1	5.7%
Cc1[nH]c(=O)[nH]c(=O)c1NS(=O)(=O)c1ccc2c(c1)CCCC2	-8.5%
COc1ccc2[nH]c3c(c2c1)CN(C)CC3	?
COCCN1CC(O)=C(c2nc3ccccc3c(=O)[nH]2)C1=N	-3.1%
CCN(CC)C(=O)C1CCCN(C/C=C/c2ccccc2)C1 (stereo unspecified)	11.1%
N#Cc1cc2c(nc1SCc1cccnc1)CCCC2	27.9%
COCCN1CSC(=S)N(Cc2ccco2)C1	1.1%
NC(=O)CSc1nnc(Cc2csc(Nc3ccccc3)n2)n1Cc1ccccc1	117.0%
CC12CCC(C(=O)Nc3ccccc3N3CCOCC3)(CC1=O)C2(C)C (stereo unspecified)	73.2%
CCn1c(=O)cc(SCC(=O)NCCN2CCN(Cc3ccccc3)CC2)c2ccccc21	88.9%
CS(=O)(=O)N1CCC[C@@]2(CCN(C(=O)Nc3cccc(F)c3)C2)C1	6.3%
O=C(O)c1cc(NCc2cccs2)ccc1N1CCOCC1	-0.9%
CCC1Sc2ccccc2N(CC(=O)NCCC(C)C)C1=O (stereo unspecified)	13.9%
COc1ccccc1NC(=O)CSc1nnc(C2CCCCC2)n1C	19.8%
O=C(c1ccncc1)N1CCC2(CCCN(c3ccc(-c4ccccc4)cc3)C2)CC1	133.2%
Fc1ccccc1N1CCN(c2nc3ccccc3n3nnnc23)CC1	-9.0%
Cn1c(SCC(=O)Nc2ccccc2F)nnc1-c1cccnc1	1.7%
O=c1c2[nH]c3ccc(Cl)cc3c2ncn1CCN1CCCCC1	16.9%
COc1ccc(Cc2nc(-c3ccc(Br)o3)no2)cc1OC	87.4%
CC(Oc1ccccc1)C(=O)NCc1cccnc1 (stereo unspecified)	0.3%
CC1CN(C(c2ccco2)c2sc3ncnn3c2O)CC(C)O1 (stereo unspecified)	-4.7%
O=C(Oc1ccccc1)N1CCC2(CCCN(c3ccncc3)C2)CC1	20.9%
CCCCNc1nc(C)nc2c1nc(-c1ccccc1)n2CCCCN(CC)CC	50.9%
N#Cc1nc(COc2ccc(F)cc2)oc1N1CCCC1	21.2%
COC(=O)c1cc2oc(C)cc2n1CC(=O)N(C)c1ccccc1	36.7%
Cc1ccc(N(C(=O)CCC(=O)Nc2cc(C)on2)C(C(=O)NC2CCCC2)c2ccncc2)cc1 (stereo unspecified)	58.3%
Cc1c(C(=O)O)nnn1-c1ccccc1	-12.2%
O=C(COc1ccccc1)Nc1ncc2c(n1)CCCC2=O	12.4%
COc1ccc(C(CC(=O)O)NC(=O)c2ccco2)cc1OC (stereo unspecified)	1.5%
O=C(Nc1c(C(=O)Nc2ccc3c(c2)OCCO3)cnn1-c1ccccc1Cl)c1ccco1	12.7%
COc1cccc(C(=O)Nc2nnc(C(C)C)s2)c1	2.5%
CCOC(=O)c1cc(-c2ccccc2)n(CC(=O)O)c1C	-5.0%
O=C(CN1CCN(S(=O)(=O)c2ccc(F)cc2)CC1)Nc1ccc2c(c1)OCO2	47.0%
Cn1c(=O)c2cc(NCc3ccccc3)nnc2n(C)c1=O	-2.5%
Cc1noc(NS(=O)(=O)c2ccc(NC(=O)CCn3c(=O)oc4ccccc43)cc2)c1C	-1.6%
CCOc1ccc(Cc2nnc(SCC(=O)c3ccc(OC)cc3)o2)cc1	54.0%
CCc1ccc(N(CC(=O)NC)S(C)(=O)=O)cc1	4.9%
Cc1cc(C2CCCCC2)n(O)c(=O)c1	6.7%[12.8 µM]
O=C(CCCc1c[nH]c2ccccc12)N1CCN(S(=O)(=O)c2cccs2)CC1	27.9%
O=C(O)[C@H](/C=C\c1ccccc1)c1ccccc1	-13.0%[5.75 µM]
Cc1ccc(S(=O)(=O)N2CCN(C(=O)CN3C(=O)NC4(CCOc5ccccc54)C3=O)CC2)cc1 (stereo unspecified)	79.0%
CN(C)CCn1c(C(=O)Nc2ccccc2)cc2ccccc21	18.9%
Cc1ccc(Cn2c(SCCN3CCOCC3)nc3c2c(=O)n(C)c(=O)n3C)cc1	100.3%
COC(=O)N1CCC2(CCCN(Cc3ccccc3)C2)CC1	8.6%
CC(C)(C)OC(=O)[C@H]([C@@H]1N[C@@H](C(=O)O)C(C)(C)S1)N1C(=O)c2ccccc2C1=O	2.2%[5.75 µM]
CSc1ccccc1NC(=O)c1onc(C)c1Cl	-4.1%
COc1ccc(Br)cc1C(=O)NCc1cccnc1	4.9%

The final 2 entries of the section above are carried over, then new ones follow.
SMILES	AmpC inh no det
CSc1ccccc1NC(=O)c1onc(C)c1Cl	-4.1%
COc1ccc(Br)cc1C(=O)NCc1cccnc1	4.9%
CC(=O)N1CCN(CC(=O)Nc2c(Cl)cc(Cl)cc2Cl)CC1	3.5%
CCC(CC)C(=O)Nc1cccc(C(=O)NCc2ccco2)c1	9.6%
O=C(CN1CCN(c2ccccc2)CC1)N1CCN(c2ccccc2)CC1	82.7%
COc1ccccc1C(c1nnnn1C(C)(C)C)N1CCN(C(=O)c2ccco2)CC1 (stereo unspecified)	91.5%
O=C(CCc1ccc(S(=O)(=O)N2CCOCC2)cc1)NCCc1ccccn1	2.1%
Cc1ccc2c(c1)N(CC(=O)NC1CCC(C)CC1)C(=O)CO2 (stereo unspecified)	8.3%
CCC1CCCCN1CCn1c(=S)[nH]c2cc(OC)c(OC)cc2c1=O (stereo unspecified)	12.2%
COc1ccccc1-c1oc2ccccc2c(=O)c1OC	43.4%
Cc1ccccc1-c1nc(CS(=O)CC(=O)NCCCN(C)c2ccccc2)c(C)o1 (stereo unspecified)	126.3%
CCNc1ncc2nc(-c3cccs3)c(=O)n(Cc3ccc(F)cc3)c2n1	32.5%
CC(=O)Nc1c(O)nc(SCC(=O)Nc2nnc(CC(C)C)s2)[nH]c1=O	-0.2%
CCN(CC)c1ncccc1C(=O)NCc1cccs1	3.3%
COCCN(C(=O)C(C)C)c1nnc(-c2cccc(C)c2)s1	79.6%
COC(=O)c1cc(NC(=O)CN2CCOCC2)cc(C(=O)OC)c1	-6.3%
COc1ccccc1NC(=O)C1CC(=O)OC1c1ccccc1 (stereo unspecified)	3.9%
Cc1ccccc1-c1nc(CN2CCC(C(=O)N3CCN(c4ccccn4)CC3)CC2)c(C)o1	121.4%
COC(=O)N1CCC2(CCCN(C)C2)CC1	1.1%
O=C(O)CSc1nnc(-c2cccs2)n1-c1ccc(Cl)cc1	-6.6%
O=C(NCc1ccccn1)c1cc(S(=O)(=O)N2CCN(c3ccccc3)CC2)ccc1Cl	39.5%
Cc1[nH]n(-c2ccccc2)c(=O)c1S(=O)(=O)c1ccccc1	12.0%
O=C(COc1ccccc1)NC1CCN(Cc2ccccc2)CC1	8.0%
O=C(Oc1ccccc1)N1CCC[C@@]2(CCN(C(c3ccccc3)c3ccccc3)C2)C1	30.4%
COC(=O)C1(C)C=C2C(=C(c3ccccc3)C(=O)C2C)CN1 (stereo unspecified)	17.9%
COc1ccc(C2C(C(=O)NCC3CCCO3)CCC(=O)N2c2ccc3c(c2)OCO3)cc1 (stereo unspecified)	19.6%
CC(CN1CCCCC1)OC(=O)c1ccccc1Cl (stereo unspecified)	-14.1%
COc1cccc(C2NC(CC(C)C)(C(=O)O)C3C(=O)N(Cc4ccccc4)C(=O)C23)c1O (stereo unspecified)	1.6%
CCS(=O)(=O)c1ccc(O)c(N2C(=O)C3C4C=CC(C4)C3C2=O)c1 (stereo unspecified)	-12.2%
O=C(c1c(Cl)nc2sccn12)N1CCCc2ccccc21	2.3%
O=C1CCC(=O)N1c1cccc(-c2nc3ccccc3o2)c1	3.98µM*[single pt active]
CN1CCc2c(sc3c2C(=O)NC(c2cccc(OC(=O)c4cccs4)c2)N3)C1 (stereo unspecified)	3.16µM*[single pt active]
COc1ccc(C(=O)c2coc3ccc(O)c(CN4CCOCC4)c23)cc1	68.2%
COC(=O)c1ccc(NC(=O)c2ccc3c(c2)OCO3)cc1	-2.5%
COc1cccc(CN2C(=O)C3(C(C#N)=C(N)OC4=C3C(=O)CCC4)c3ccccc32)c1 (stereo unspecified)	55.5%
CC1CCC(NS(=O)(=O)c2ccc3c(c2)n(C)c(=O)c(=O)n3C)CC1 (stereo unspecified)	5.1%
CCN1CCN(C(=O)c2cnn3c(C(F)F)cc(-c4ccc(C)cc4)nc23)CC1	121.1%
CN1C(=O)NC(c2ccc(O)cc2)C(C(=O)c2cccs2)C1(O)C(F)(F)F (stereo unspecified)	16.4%
O=C(Nc1cccc(C(=O)N2CCOCC2)c1)c1cccnc1	-5.1%
Clc1ccc(OCc2cn3cccnc3n2)c2ncccc12	89.8%
C=CCN1C(=O)/C(=C2/Sc3ccccc3N2CCCS(=O)(=O)O)SC1=S	0.8%
COc1cc(NC(=O)c2c(F)cccc2F)nc(OC)n1	-3.8%
CCOc1ccc(C2CC(c3ccc(F)cc3)Nc3nc(N)nn32)cc1 (stereo unspecified)	36.1%
O=C1NCN(c2ccccc2)C12CCN(CCCC(c1ccc(F)cc1)c1ccc(F)cc1)CC2	8.4%[12.8 µM]
CCn1c(=O)cc(OCC(=O)Nc2cc(C)ccn2)c2ccccc21	32.3%
Cc1ccc2c(c1)CCCN2C(=O)C1CCCO1 (stereo unspecified)	18.0%
O=S1(=O)CCC(S(=O)(=O)N2CCCCCC2)C1 (stereo unspecified)	-19.5%
CCCC(c1nnnn1CCc1ccccc1)N1CCN(C2CCCC2)CC1 (stereo unspecified)	3.0%
O=C(CSc1nnc2n(C3CCCC3)c(=O)c3ccccc3n12)N1CCCCCC1	73.6%
CSc1nc(NCc2ccco2)c2c3c(sc2n1)CN(C)CC3	-3.4%
O=C(CCn1nnc2ccccc2c1=O)NCC1CCC(C(=O)O)CC1 (stereo unspecified)	5.7%
COc1cc(OC)nc(NC(=O)CSc2nc3ccccc3o2)n1	-11.8%
c1csc(CN2CCCC3(CCNCC3)C2)n1	72.1%
C=CCn1c(=O)c2c(nc3n2CCN3c2cccc(Cl)c2C)n(C)c1=O	68.1%
Cc1ccccc1CS(=O)(=O)Cc1ccc(C(=O)NCCCN2CCOCC2)o1	1.6%
COc1cccc(C2=Nn3c(nnc3-c3ccccc3O)SC2)c1	-16.6%
Cc1nc(SCC(=O)N2CCOCC2)c2ccsc2n1	-6.7%
CCC/C(=N\O)c1c[nH]c2ccccc12	-5.5%
c1ccc2cc(-c3cc(-c4cc(-c5ccc6ccccc6c5)on4)no3)ccc2c1	-6.3%[5.75 µM]
COc1ccccc1CNC(=O)C(C)NS(=O)(=O)c1ccc(C)cc1 (stereo unspecified)	5.1%
COc1ccc(-c2c3c(nc4sc(C(=O)Nc5cc(C)on5)c(N)c24)CCC3)cc1	68.7%
CN(Cc1cc(C(C)(C)C)cc(Br)c1O)Cc1cc(C(C)(C)C)cc(Br)c1O	7.6%[5.75 µM]

Grouped by structure, the entries above with a Cl atom
SMILES	AmpC inh no det
O=c1c2[nH]c3ccc(Cl)cc3c2ncn1CCN1CCCCC1	16.9%
O=C(Nc1c(C(=O)Nc2ccc3c(c2)OCCO3)cnn1-c1ccccc1Cl)c1ccco1	12.7%
CSc1ccccc1NC(=O)c1onc(C)c1Cl	-4.1%
CC(=O)N1CCN(CC(=O)Nc2c(Cl)cc(Cl)cc2Cl)CC1	3.5%
O=C(O)CSc1nnc(-c2cccs2)n1-c1ccc(Cl)cc1	-6.6%
O=C(NCc1ccccn1)c1cc(S(=O)(=O)N2CCN(c3ccccc3)CC2)ccc1Cl	39.5%
CC(CN1CCCCC1)OC(=O)c1ccccc1Cl (stereo unspecified)	-14.1%
O=C(c1c(Cl)nc2sccn12)N1CCCc2ccccc21	2.3%
Clc1ccc(OCc2cn3cccnc3n2)c2ncccc12	89.8%
C=CCn1c(=O)c2c(nc3n2CCN3c2cccc(Cl)c2C)n(C)c1=O	68.1%

(cont.)
SMILES	AmpC inh no det
CN1CCN(C(=O)c2cc3nc(-c4ccc(F)cc4)cc(C(F)(F)F)n3n2)CC1	15.1%
COCCCn1c(SCC(=O)Nc2nnc(C)s2)nnc1-c1ccoc1C	0.3%
O=S(=O)(c1ccc2ccccc2c1)n1cnc2ccccc21	3.7%
Cc1ccc(N2CC(C(=O)NCC3CCCO3)CC2=O)cc1Cl (stereo unspecified)	15.9%
CCCNC(=O)Cn1cnc2sc(C(=O)N3CCN(CCC)CC3)c(C)c2c1=O	-11.9%
CC1(C)CC(=O)c2cc(OCC(=O)N3CCN(c4ccccc4F)CC3)ccc2O1	71.7%
c1ccc2c(c1)ccc1ccccc12	-19.9%
COc1ccc(Oc2ncc3nc(-c4ccccc4)c(=O)n(C4CC4)c3n2)cc1	22.0%
Cc1cccn2c(NCC3CCCO3)c(C(C)C)nc12 (stereo unspecified)	-3.2%
CC(C)N(C(=O)CSc1nnnn1C1CCCC1)C(C)C	13.4%
C=C(C)Cn1c(CNC(C)=O)nc2ccccc21	13.7%
Cc1ccccc1C(=N)c1ccccc1Cc1cccc2ccccc12	-14.0%[5.75 µM]
CC1(CCC#N)N=C(SCCC#N)N(c2ccccc2)C1=O (stereo unspecified)	10.6%
Cc1cc(C)n2c(SCC(=O)Nc3ncc(C(F)(F)F)cc3Cl)nnc2n1	10.8%
CC(C)C(OC(=O)c1ccco1)C(=O)NCc1ccccc1 (stereo unspecified)	12.1%
Cc1cc(=O)n(CCO)c(O)c1C#N	-9.8%
OCc1ccncc1.OCc1ccncc1.[Cl][Pt]([Cl])([Cl])[Cl]	0.5%[5.75 µM]
CCOc1ccccc1N1C(=O)c2cccnc2C1=O	10.2%
Cc1c(C(=O)N2CCN(c3ccccc3F)CC2)sc2nc(-c3ccccc3)cn12	62.4%
C[C@@]1(C(NC(=O)c2ccccc2)c2ccc(-c3ccccc3)cc2)C[C@H]1C1CCCCC1 (stereo partly specified)	-18.6%
COC(=O)c1ccc(C(NC(=O)OCc2ccccc2)/C(I)=C/[C@@H](C)C(=O)NCc2ccc(C)o2)cc1 (stereo partly specified)	49.4%
